HEK293 cAMP cs: qHTS Assay for Agonists of the Thyroid Stimulating Hormone Receptor: Activators of Intracellular cAMP Concentrations in Parental HEK 293 | 73,000 tested, 2.5% active | parental HEK293 CNG cAMP sensor, membrane potential fluorescence | Potency, µM (titrated, usually from 57.1 µM), for inactives: top-dose activation, hits mostly activators | AID 938, 2007; note: potency is the fitted concentration of half-maximal effect; % of control where 0% means no effect; nearly all actives have a fitted effect of over 55% in size
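Counterscreen for endogenous-receptor signalling: CNG-channel HEK 293 cells report cAMP rise by membrane depolarization. After 60 min dye equilibration with 100 uM RO 20-1724, compounds incubated 30 min before bottom-read fluorescence at 590 nm.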
USP2a inhib: qHTS Assay for Inhibitors of Ubiquitin-specific Protease USP2a; USP2a enzymatic assay, qHTS inhibition; Potency, µM (series often up to 38.3 µM), inactives show at the highest dose activity change, negative = inhibition, hits mostly inhibitors; 60,000 tested, 0.1% active; AID 927, 2007;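 note: potency is the fitted concentration of half-maximal effect; nearly all actives have a fitted effect of over 60% in size; plate controls were DMSO for no effect and NEM full inhibition control for full effect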
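Inhibition is measured in a cell-free coupled assay with 20 nM USP2 core, 20 nM Ub-PLA2 and 20 uM NBD C6-HPC, 2.5 h incubation. Activity normalized to NEM control.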
BRCT PPI red: qHTS Assay for Inhibitors of BRCT-Phosphoprotein Interaction (Red Fluorophore); 75,000 tested, 0.03% active; BRCT-phosphopeptide binding, red fluorescence polarization; Breast cancer type 1 susceptibility protein (Homo sapiens), P38398; Potency, µM (top dose mostly 76.9 µM), inactives show top-dose activity change, negative = inhibition, actives largely listed as inhibitors; note: % is set by controls: 0 for no effect and ±100 for the full control effect
Target sequence (P38398 whole entry, looked up): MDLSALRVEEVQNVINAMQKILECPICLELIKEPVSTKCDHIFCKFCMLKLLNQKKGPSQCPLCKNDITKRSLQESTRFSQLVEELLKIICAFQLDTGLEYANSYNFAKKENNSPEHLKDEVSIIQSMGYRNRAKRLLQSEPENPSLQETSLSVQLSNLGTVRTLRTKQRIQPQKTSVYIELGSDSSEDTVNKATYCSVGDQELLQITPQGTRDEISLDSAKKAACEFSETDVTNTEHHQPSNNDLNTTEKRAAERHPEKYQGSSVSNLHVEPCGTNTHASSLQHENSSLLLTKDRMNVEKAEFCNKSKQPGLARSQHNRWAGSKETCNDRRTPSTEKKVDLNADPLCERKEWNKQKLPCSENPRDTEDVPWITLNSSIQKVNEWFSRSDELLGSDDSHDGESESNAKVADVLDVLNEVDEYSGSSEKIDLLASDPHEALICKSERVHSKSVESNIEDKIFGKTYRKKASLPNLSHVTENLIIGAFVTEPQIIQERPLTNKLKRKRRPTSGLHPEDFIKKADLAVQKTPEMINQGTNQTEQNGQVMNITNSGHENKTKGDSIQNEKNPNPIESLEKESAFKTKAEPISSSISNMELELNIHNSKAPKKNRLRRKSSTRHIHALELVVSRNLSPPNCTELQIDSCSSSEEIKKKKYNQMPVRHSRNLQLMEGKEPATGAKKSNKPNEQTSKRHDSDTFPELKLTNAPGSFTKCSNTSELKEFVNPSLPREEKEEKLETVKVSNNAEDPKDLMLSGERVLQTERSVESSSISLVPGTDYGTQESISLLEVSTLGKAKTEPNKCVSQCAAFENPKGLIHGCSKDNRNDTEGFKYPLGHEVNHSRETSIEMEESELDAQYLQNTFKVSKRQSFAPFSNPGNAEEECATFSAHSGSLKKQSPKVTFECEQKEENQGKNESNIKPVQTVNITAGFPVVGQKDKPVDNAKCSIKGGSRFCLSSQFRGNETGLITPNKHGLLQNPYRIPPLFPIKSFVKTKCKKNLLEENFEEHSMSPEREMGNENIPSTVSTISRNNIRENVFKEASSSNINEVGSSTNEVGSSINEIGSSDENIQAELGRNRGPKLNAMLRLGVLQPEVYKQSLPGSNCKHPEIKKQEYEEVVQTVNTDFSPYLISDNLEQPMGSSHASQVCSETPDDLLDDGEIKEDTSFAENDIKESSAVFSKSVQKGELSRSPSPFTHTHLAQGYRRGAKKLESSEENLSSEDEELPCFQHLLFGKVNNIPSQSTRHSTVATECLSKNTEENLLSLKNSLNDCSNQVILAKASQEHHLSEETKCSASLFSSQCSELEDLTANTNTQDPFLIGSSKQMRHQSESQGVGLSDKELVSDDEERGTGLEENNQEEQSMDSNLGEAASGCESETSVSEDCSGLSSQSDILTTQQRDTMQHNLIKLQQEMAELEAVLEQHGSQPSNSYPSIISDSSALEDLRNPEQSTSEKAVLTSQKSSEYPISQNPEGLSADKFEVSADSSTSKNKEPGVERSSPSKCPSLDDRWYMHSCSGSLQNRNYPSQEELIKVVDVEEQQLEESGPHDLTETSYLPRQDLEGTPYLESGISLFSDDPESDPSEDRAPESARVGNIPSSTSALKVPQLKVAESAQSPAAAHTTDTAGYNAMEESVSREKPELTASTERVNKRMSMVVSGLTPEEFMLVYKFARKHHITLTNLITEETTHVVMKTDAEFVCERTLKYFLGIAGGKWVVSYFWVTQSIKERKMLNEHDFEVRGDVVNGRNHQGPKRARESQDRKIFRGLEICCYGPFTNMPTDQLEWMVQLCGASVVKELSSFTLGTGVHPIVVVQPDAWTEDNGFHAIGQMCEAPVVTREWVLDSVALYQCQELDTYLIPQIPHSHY
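Rhodamine-labelled pBACH1 10-mer (100 nM) bound to BRCT domain (100 nM) at pH 7.3; compounds incubated 12 min room temperature, polarization read. Free peptide defines full inhibition; unlabelled decapeptide titrated as control.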
Epigenetic mod: qHTS Assay for Epigenetic Modulators. Potency, µM (highest dose often 46.1 µM), for the others: at the top dose GFP derepression (activation). 68,000 tested, 0.09% active. mouse C127i GFP locus derepression, cytometry, 30 h. AID 597, 2007; note: % of control where 0% means no effect
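Locus derepression in mouse mammary C127i cells whose integrated CMV-GFP reporter is normally silent; GFP expression after 30 h compound treatment was quantified by counting fluorescent cells.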
Fluorescein fluor: qHTS Assay for Spectroscopic Profiling in Fluorescein Spectral Region; Compound autofluorescence, 480/540 nm, fluorescein-equivalent; active compounds read high; 59,000 tested, 0.91% active; max fluorescein-equivalent concentration, M; AID 593, 2007; in the data active = max fluorescein-equivalent concentration above about 10 nM; inconclusive = between about 1.1 nM and that limit
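Autofluorescence profiling; 100 mM Tris, pH 8.0; incubation 15 min at RT; ex/em 480/540 nm; result as fluorescein-equivalent concentration.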
UbGFP stabilizer: Ubiquitin-GFP Assay; Ubiquitin-GFP reporter cells, proteasome inhibition, GFP fluorescence; response scale: untreated = 0%, 10 µM MG-132 = 100%; Potency, µM (titrated, usually from 45.9 µM), without a hit: at the top dose activation (GFP accumulation), usual class: activators; 67,000 tested, under 10 active; active = well fitted activation curve with a large enough effect, not every such curve was filed as active; inconclusive = small, poorly fitted or top-dose-only effect, or another doubt; inactive = no such curve, though single readings can be large or run the other way; note: potency is the fitted concentration of half-maximal effect
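GFP accumulation read-out: laser plate cytometry counting ubiquitin(G76V)-GFP-expressing U2OS cells after 4 hr compound exposure at 37 °C. Titrations spanned 46 uM to 2.9 nM; 0% = basal, 100% = 10 uM MG-132; concentration-response curves fitted.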
BRCT PPI green: qHTS Assay for Inhibitors of BRCT-Phosphoprotein Interaction (Green Fluorophore); Breast cancer type 1 susceptibility protein (Homo sapiens), P38398; Potency, µM (titrated, usually from 76.9 µM), for inactives: top-dose activity change, negative = inhibition, usual class: inhibitors; BRCA1 BRCT-phosphopeptide binding, green fluorescence polarization; 75,000 tested, 0.05% active;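 note: potency is the fitted concentration of half-maximal effect; plate controls were peptide without protein for full effect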
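Compounds were incubated for 12 min at room temperature with a complex of 100 nM fluorescein-tagged pBACH1 decapeptide and 250 nM His-tagged BRCT protein. Buffer was phosphate pH 7.3 with EDTA, DTT and Tween 20. Disruption of binding lowers the polarization signal.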
* hit, by the source's call; i = inactive; ? = inconclusive; nt = not tested or not shown; [ ] = remark or other dose. Unless noted, calls come from the whole dose curve; as a rule, active = well fitted curve in the direction sought with a large enough effect; inconclusive = small, poorly fitted or top-dose-only effect, or another doubt; inactive = no such curve, though single readings can be large; an effect the other way counts as inactive or inconclusive.

SMILES	HEK293 cAMP cs	USP2a inhib	BRCT PPI red	Epigenetic mod	Fluorescein fluor	UbGFP stabilizer	BRCT PPI green
N#CC1=C(N)C(C#N)(C#N)C(c2ccc[nH]2)C2CCCC=C12 (stereo unspecified)	-11%	0%	-3.8%	0%	1.3e-08M*	-4%	-1.3%
COCCn1c(=O)c(CCc2ccccc2)nc2cnc(Nc3cccc(OC)c3)nc21	18%	56%[activator]	0.3%	8%[9.22 µM]	i	?	13%
CCN1CC=C2C(C#N)=C(N)C(C#N)(C#N)C(c3cc(Cl)ccc3Cl)C2C1 (stereo unspecified)	-11%	30%[activator]	-1.4%	-3%	2.4e-08M*	2%	-15%
Cc1ccc(C2C=C(c3ccccc3OC(F)F)Nc3ncnn32)cc1 (stereo unspecified)	18%	10%	-0.6%	1%	i	-7%	0.8%
CCNc1ncc2nc(-c3ccc(Cl)cc3)c(=O)n(Cc3ccc(F)cc3)c2n1	1%	105%[activator]	0.1%	2%[9.22 µM]	?	-1%	-1.4%
Cc1c(Cc2ccccc2)c(=O)oc2c(CN(C)C)c(O)c(Cl)cc12	-5%	24%	-0.5%	-2%	i	9%	-0.4%
CCOC(=O)NC(=O)CSc1nc(C)cc(C)c1C#N	13%	-3%	-0.2%	-2%	i	-2%	-0.3%
CC1CCN(CCCNC(=O)c2coc3nc4ccccc4nc23)CC1	2%	11%	1.0%	0%	?	4%	-0.4%
COCCn1c(=O)c(-c2cccc(C#N)c2)nc2cnc(N3CCNCC3)nc21	25%[2.29 µM]	16%	0.5%	-11%[9.22 µM]	?	0%	-4.7%
CCOC(=O)c1cc2c(=O)n3ccccc3nc2n(CC(C)C)c1=NC(=O)c1ccco1	-13%	20%	0.5%	-3%	i	-6%	1.3%
CSc1nnc2c(n1)OC(C)N(C(=O)c1ccccc1)c1ccccc1-2 (stereo unspecified)	-13%	2%	1.3%	-2%	i	-14%	-4.0%
CCNc1ncc2nc(-c3cccs3)c(=O)n(-c3ccccc3)c2n1	?	137%[activator]	-0.5%	8%[9.22 µM]	?	?	31%[activator]
N=c1c(C(=O)NCc2ccccc2)cc2c(=O)n3ccccc3nc2n1CCCN1CCOCC1	15%	5%	1.2%	0%	?	10%	1.7%
Cc1c2c(n3c(nc4ccccc43)c1C#N)N(Cc1cccnc1)CC2	3%	-3%	-2.5%	0%	?	9%	0.1%
C=CCNc1oc(-c2cccc3ccccc23)nc1C#N	-8%	-2%	0.0%	8%	i	nt	1.2%
CCC(=O)Nc1ccc(NC(=O)CSc2nnnn2C(C)C)cc1	-8%	-4%	0.3%	0%	?	0%	-1.1%
CC1(C)CC(=O)c2cc(OCC(=O)NCC3CCCO3)ccc2O1 (stereo unspecified)	-5%	-8%	-1.0%	-1%	i	10%	-1.0%
COc1ccccc1N1CCN(C(=O)c2ccc3nc(-c4ccco4)c(-c4ccco4)nc3c2)CC1	0%	17%	-5.2%	0%	?	-1%	-3.1%
Cc1cc(NCCCCO)n2c(nc3ccccc32)c1C#N	-8%	-19%	-0.4%	-1%	i	4%	-1.9%
Cc1cccn2c(=O)c3cc(C#N)c(=N)n(Cc4cccnc4)c3nc12	2%	nt	-0.8%	-2%	?	0%	-2.8%

A draw from above in order of molecular weight, ascending.
SMILES	HEK293 cAMP cs	USP2a inhib	BRCT PPI red	Epigenetic mod	Fluorescein fluor	UbGFP stabilizer	BRCT PPI green
CCC(=O)Nc1ccc(NC(=O)CSc2nnnn2C(C)C)cc1	-8%	-4%	0.3%	0%	?	0%	-1.1%
CSc1nnc2c(n1)OC(C)N(C(=O)c1ccccc1)c1ccccc1-2 (stereo unspecified)	-13%	2%	1.3%	-2%	i	-14%	-4.0%
CCNc1ncc2nc(-c3ccc(Cl)cc3)c(=O)n(Cc3ccc(F)cc3)c2n1	1%	105%[activator]	0.1%	2%[9.22 µM]	?	-1%	-1.4%

Going on with the list.
SMILES	HEK293 cAMP cs	USP2a inhib	BRCT PPI red	Epigenetic mod	Fluorescein fluor	UbGFP stabilizer	BRCT PPI green
COc1ccc(-n2c(N)c(C(=O)NCc3ccco3)c3nc4ccccc4nc32)c(OC)c1	-9%	50%[activator]	0.3%	2%	i	9%	10%
CCc1cc(=O)oc2c(C)c(O)c(CN(C)C)cc12	14%	-4%	0.5%	0%	?	-1%	-0.9%
C=CCn1c(NC(=O)c2ccco2)c(S(=O)(=O)c2ccccc2)c2nc3ccccc3nc21	-1%	-5%	0.2%	0%	i	10%	0.3%
Cc1ccc(CNC(=O)c2cc3c(=O)n4cccc(C)c4nc3n(CC3CCCO3)c2=N)cc1 (stereo unspecified)	-7%	7%	0.4%	-2%	i	-1%	0.0%
CCNc1ncc2nc(CCc3ccccc3)c(=O)n(CCOC)c2n1	30%	2%	0.6%	0%[9.22 µM]	i	0%	-1.8%
COc1ccc(-n2c(=O)c(-c3cn(C)c4ccccc34)nc3cnc(N4CCOCC4)nc32)cc1	?	69%[activator]	-1.0%	10%[9.22 µM]	?	-1%	-3.6%
CCCn1c(=NC(C)=O)c(C#N)cc2c(=O)n3cccc(C)c3nc21	-7%	19%	-0.1%	2%	?	nt	-0.3%
CCNc1ncc2nc(-c3ccc(F)cc3)c(=O)n(C[C@H]3CCCO3)c2n1	11%	36%[activator]	-1.0%	-3%[9.22 µM]	?	2%	1.7%
COc1ccc(CCNC(=O)c2cc3c(=O)n4cccc(C)c4nc3n(Cc3ccncc3)c2=N)cc1	1%	11%	0.1%	-4%	?	18%	0.1%
COCCN(CCOC)C(=O)c1cc2c(=O)n3ccccc3nc2s1	2%	-3%	0.2%	4%	i	14%	0.8%
COc1ccc2nc(NCCCNC(=O)c3cc(OC)c(OC)c(OC)c3)c(C#N)cc2c1	-4%	nt	-1.0%	-3%	?	0%	-3.4%
N#Cc1c(NCCCO)nc(NCc2ccccc2)c2c1CCN(Cc1ccccc1)C2	-42%[inhibitor]	10%	-5.3%	0%	?	6%	-0.4%
Cc1ccc(N2C(=O)c3ccc(N)cc3C2=O)cc1	-31%[inhibitor]	6%	-0.3%	-1%	?	0%	2.9%
CCCC(c1nnnn1CC(=O)OCC)N(Cc1cc2ccc(C)cc2[nH]c1=O)C1CCCC1 (stereo unspecified)	?	12%	-0.7%	1%	?	-2%	0.5%
CCCNC(=O)c1c(N)n(-c2cccc(OC)c2)c2nc3ccccc3nc12	5%	32%[activator]	-4.6%	4%	?	0%	1.1%
COc1ncc2nc(-c3cn(C)c4ccccc34)c(=O)n(-c3ccccc3)c2n1	?	199%[activator]	0.9%	8%[9.22 µM]	1.5e-08M*	-5%	5.2%
Cc1ccc(S(=O)(=O)C(C#N)c2nc3ccccc3nc2N2CCCC2)cc1C (stereo unspecified)	6%	41%[activator]	-0.8%	0%	1.4e-08M*	4%	8.8%
COCCOC(=O)c1cc(C(=O)c2cc(F)ccc2O)coc1=N	-2%	12%	1.1%	-1%	?	3%	2.1%
COc1ccc(CNC(=O)c2cc3c(=O)n4ccccc4nc3n(CC3CCCO3)c2=N)cc1 (stereo unspecified)	-28%	11%	-0.3%	3%	?	-3%	2.5%
CC(=O)N1CCN(c2nc3cc4c(cc3nc2NS(=O)(=O)c2ccccc2)OCCO4)CC1	-2%	5%	-0.8%	3%	i	2%	-2.3%

Some of these compounds in order of their number in Fluorescein fluor, falling.
Compound	BRCT PPI red	Fluorescein fluor	UbGFP stabilizer	BRCT PPI green
CCN1CC=C2C(C#N)=C(N)C(C#N)(C#N)C(c3cc(Cl)ccc3Cl)C2C1 (stereo unspecified)	-1.4%	2.4e-08M*	2%	-15%
COc1ncc2nc(-c3cn(C)c4ccccc34)c(=O)n(-c3ccccc3)c2n1	0.9%	1.5e-08M*	-5%	5.2%
Cc1ccc(S(=O)(=O)C(C#N)c2nc3ccccc3nc2N2CCCC2)cc1C (stereo unspecified)	-0.8%	1.4e-08M*	4%	8.8%
N#CC1=C(N)C(C#N)(C#N)C(c2ccc[nH]2)C2CCCC=C12 (stereo unspecified)	-3.8%	1.3e-08M*	-4%	-1.3%

(listing goes on)
SMILES	HEK293 cAMP cs	USP2a inhib	BRCT PPI red	Epigenetic mod	Fluorescein fluor	UbGFP stabilizer	BRCT PPI green
COCCn1c(=O)c(-c2ccc(F)cc2)nc2cnc(Nc3cccc(OC)c3)nc21	23%	126%[activator]	-0.5%	3%[9.22 µM]	i	?	0.9%
COCCn1c(-c2ccco2)nc2nc3ccccc3nc21	-1%	8%	0.9%	2%	i	0%	0.5%
CN1CCN(c2ccnc(-c3ccc(N(C)C)cc3)n2)CC1	-17%	41%[activator]	1.4%	-1%[9.22 µM]	?	-2%	-2.8%
CCn1c(=N)c(C(=O)NCCCOC)cc2c(=O)n3cccc(C)c3nc21	5%	-1%	-0.3%	0%	i	0%	-5.0%
Cc1cc2c3nonc3ccc2n1C	20%	-27%	0.4%	4%	i	3%	-2.9%
COCCn1nnnc1CN(Cc1cccnc1)Cc1cc2cc(OC)ccc2[nH]c1=O	8%	nt	1.5%	-1%	i	-2%	1.2%
COc1ccccc1C1C=C(c2ccc(C)cc2)Nc2nnnn21 (stereo unspecified)	25µM*	4%	-0.1%	0%	i	3%	1.3%
CN1/C(=C\C(=O)c2ccco2)C(C)(C)c2ccccc21	20µM*	-6%	-1.0%	-2%	i	-3%	-0.2%
Cc1onc(-c2ccccc2)c1C(=O)Nc1cccc2nsnc12	?	-5%	0.2%	5%	i	-2%	-1.7%
O=C(C1CCN(c2ccc(N3CCOCC3)nn2)CC1)N1CCN(c2ccc(F)cc2)CC1	2%	6%	-1.2%	0%	i	nt	-2.0%
Cc1cc(NCCN2CCCCC2)n2c(nc3ccccc32)c1C#N	7%	3%	-0.3%	2%	?	2%	-0.1%
N#CCCn1c(=O)c(-c2cc(F)cc(F)c2)nc2cnc(N3CCOCC3)nc21	18%	148%[activator]	-0.4%	0%[9.22 µM]	i	2%	-0.2%
CN1CCN(c2ncc3nc(-c4cn(C)c5ccccc45)c(=O)n(CCC#N)c3n2)CC1	-37%[inhibitor]	4%	0.7%	0%[9.22 µM]	?	24%	9.0%
N#CCCn1c(=O)c(-c2ccccc2)nc2cnc(N3CCOCC3)nc21	12%	11%	1.0%	2%[9.22 µM]	i	2%	-3.1%
COCCn1c(=O)c(-c2cccs2)nc2cnc(Oc3ccccc3)nc21	12%	45%[activator]	-0.4%	-3%[9.22 µM]	i	-4%	-1.9%
CC1(C)CC(=O)C2=C(C1)N(c1cccc(O)c1)C1=C(C2)C(=O)CC(C)(C)C1	9%	17%	-2.5%	-5%	?	1%	-0.8%
N#Cc1cc2c(=O)n3ccccc3nc2n(CCCN2CCOCC2)c1=O	-7%	5%	-0.4%	0%	?	-3%	-1.3%
CCNc1ncc2ncc(=O)n(C3CC3)c2n1	11%	-8%	1.1%	-5%[9.22 µM]	i	7%	-1.2%

A portion of the library; count on the stated rates, not on these rows.
